Compound activity deposited in PubChem by several laboratories.
Ecoli growth: E. coli growth inhibition; 330,000 compounds, 0.21% hits; Escherichia coli growth, OD600, 23 h; active compounds read low; OD600 absorbance (no concentration beside the values);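 active means OD600 absorbance below the run mean of sample wells minus 3.6 SD, in any replicate, cut at about 0.56 in these data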;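 further: stock transfer was 300 nL into about 60 µL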
ALR inh: blocks human ALR sulfhydryl oxidase activity | purified ALR, DTT oxidation, H2O2 HRP-luminol luminescence | inhibition, % (test concentration not listed) | AID 485317 | P55789 | 290,000 compounds, 3.8% hits;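 active means mean and each replicate at 75% or more; inconclusive means only one of the two met; inactive means neither met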;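 further: stock transfer was 7.5 nL into about 7.5 µL; 0% = neutral wells and 100% = wells with inactivated enzyme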
Target sequence (P55789 whole entry, looked up): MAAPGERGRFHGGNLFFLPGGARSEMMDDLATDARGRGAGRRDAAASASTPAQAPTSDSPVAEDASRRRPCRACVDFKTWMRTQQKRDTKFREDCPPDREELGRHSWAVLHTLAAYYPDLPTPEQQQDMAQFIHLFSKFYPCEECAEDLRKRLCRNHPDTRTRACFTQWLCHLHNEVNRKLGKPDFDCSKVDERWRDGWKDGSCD
HNF4A DNA FP: change in binding of human HNF4 alpha to DNA; P41235; HNF4a-FITC DNA binding, fluorescence polarization, 1 h; 360,000 compounds, 0.3% hits; AID 1224865; activity change, % at 10 µM; in the data active means activity change above about 30%, passing the limit was not always enough;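 further: controls were the assay level and a saturating level of protein; the project sought stronger binding though the title names inhibitors; some compounds called inactive have numbers as strong as hits; positive values seem to mean higher polarization but the record does not say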
Target sequence (P41235 whole entry, looked up): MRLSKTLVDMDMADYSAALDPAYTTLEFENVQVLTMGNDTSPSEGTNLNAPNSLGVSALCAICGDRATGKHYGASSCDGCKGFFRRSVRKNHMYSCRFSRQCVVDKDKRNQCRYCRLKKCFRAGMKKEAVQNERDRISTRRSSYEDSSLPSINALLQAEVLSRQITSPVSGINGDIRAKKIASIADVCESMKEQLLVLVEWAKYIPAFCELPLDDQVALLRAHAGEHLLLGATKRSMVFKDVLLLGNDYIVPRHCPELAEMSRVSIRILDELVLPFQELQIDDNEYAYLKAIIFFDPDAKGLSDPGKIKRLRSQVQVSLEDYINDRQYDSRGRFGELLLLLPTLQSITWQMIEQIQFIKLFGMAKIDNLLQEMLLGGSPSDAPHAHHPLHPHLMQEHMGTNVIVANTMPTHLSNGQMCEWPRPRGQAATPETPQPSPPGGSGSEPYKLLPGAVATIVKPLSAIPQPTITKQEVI
rRNA inh HTS: inhibitors of bacterial rRNA selective over humanized ribosomes; E. coli WT GFP vs humanized-ribosome RFP mutants, fluorescence, 24 h; active compounds read low; DMSO median 0, no signal -100; GFP signal change (wild-type ribosome), % (test concentration not listed); 350,000 compounds, 1.6% hits; AID 720706;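 active means significant combined selectivity score with lowered wild-type GFP, culture density cut under 30%, mutant RFP and density less affected; inactive means any of these conditions unmet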; further: one replicate is shown; some compounds called inactive have numbers as strong as hits
FGF22 binding: binders of recombinant human FGF22 by thermal shift | AID 651658 | SYPRO orange fluorescence; percent of sucrose octasulfate shift, DMSO zero | 340,000 compounds, 1.5% hits | calls only at 9.99 µM;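 active means melting point raised past a set limit in the mean and every replicate; inconclusive means no clear call; three in four hits are not shown here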
Target sequence (Q9HCT0 whole entry, looked up): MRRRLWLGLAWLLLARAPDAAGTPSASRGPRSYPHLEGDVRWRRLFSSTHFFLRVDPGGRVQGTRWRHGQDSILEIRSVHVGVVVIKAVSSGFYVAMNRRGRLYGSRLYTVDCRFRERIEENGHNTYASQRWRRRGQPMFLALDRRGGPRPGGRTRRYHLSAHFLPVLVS
MLL AF4-AF9 inh: inhibitors of human MLL-AF4/AF9 interaction; inhibition, % at 10 µM; AID 651704; P42568; AlphaScreen, biotin-AF4 peptide binding to FLAG-AF9; 350,000 compounds, 0.47% hits;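 active means every replicate reaching a set inhibition limit, whatever the replicate mean, cut at about 25% in these data; inconclusive means mean inhibition reaches that limit but some replicates miss it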;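 further: 0% = plate neutral control median and 100% = total signal loss; the record names both 10 and 1 µM as test concentration; the first replicate is given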
Vif TR-FRET: inhibitors of Vif binding to APOBEC3G peptide, primary screen, biochemical, TR-FRET, GST-Vif 1-94, biotin-A3G peptide, dose response retest (AID 1117319); 260,000 compounds, 0.57% hits; inhibition, %, or IC50 in µM where a hit was titrated; TR-FRET GST-Vif / biotin-A3G peptide binding; higher % means a stronger effect; test concentration not given here; strong numbers were not always called active;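 active means above the screen mean plus three standard deviations and confirmed in dose response; inconclusive means results disagree or hit not tested in dose response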;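 further: Vif residues 1-94 fused to GST binding biotinylated APOBEC3G peptide 110-148; 0% = full assay without inhibitor and 100% = GST in place of GST-Vif; retest series ran down from 100 µM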
rRNA inh HTS OD600: also measured in rRNA inh HTS; calls as there; OD600 change, %; measured here: OD600 growth;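 optical density of the mix in the first replicate; 0 = DMSO median and -100 = no signal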
rRNA inh HTS RFP: recorded beside rRNA inh HTS, whose call it bears; RFP signal change, %; measured here: RFP humanized mutant strains;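 first replicate; 0 = DMSO median and -100 = no signal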
* hit, by the source's call; i = inactive; ? = inconclusive; / = no result given; & = joins results of further samples. This is a subset; rates above refer to the full screens.

SMILES | Ecoli growth | ALR inh | HNF4A DNA FP | rRNA inh HTS | rRNA inh HTS OD600 | rRNA inh HTS RFP | FGF22 binding | MLL AF4-AF9 inh | Vif TR-FRET
Cn1c(SCC(=O)N2CCOCC2)nnc1-c1ccncc1 | 0.66 | -1.4 | 0.5 | 3.1 | 11.5 | -1.5 | i | -0.3 | /
O=C(NCc1ccc(F)cc1)c1ccccc1OCc1ccccc1 | 0.724 | 0.7 | -0.3 | -37.5* | -22.9* | -9.4* | i | -19.8 | /
CS(=O)(=O)N1CCC(C(=O)Nc2ccc(C(N)=O)cc2)CC1 | 0.668 | / | -1.1 | 11.7 | 8.5 | 1.7 | i | -5.5 | -7.2%
c1ccc2c(c1)nc(N1CCCCC1)c1ccccc12 | 0.657 | / | -3.7 | -5.8 | 6.9 | 2.3 | i | -5.8 | ?
CCOc1ccc(/C=C2\SC(=S)N(NS(=O)(=O)c3ccc(C)cc3)C2=O)cc1OC | 0.664 | 11.5 | 0.4 | -24.2* | -15.4* | 9.0* | i | 6.4 | 0.7%
O=C(COc1coc(CN2CCN(c3ccccc3F)CC2)cc1=O)N1CCc2ccccc21 | 0.678 | -0.4 | -1.2 | -4.1 | 9.8 | -6.0 | i | -1.8 | 3.1%
CC1CCN(C(=O)c2[nH]cnc2C(=O)N[C@H](C)c2ccccc2)CC1 | / | -2.4 | 3.8 | -1.5 | 1.1 | 1.3 | i | -19.3 | /
C[C@@H]1CN([C@H](C)CO)C(=O)c2cc(NS(=O)(=O)c3ccc(Cl)cc3)ccc2O[C@@H]1CN(C)Cc1ccc(C(=O)Nc2ccccc2N)cc1 | / | / | / | -1.3 | 5.7 | 2.9 | i | -1.8 | /
CCC(C)Sc1ccc([C@H]2N[C@@](CC(C)C)(C(=O)OC)[C@H]3C(=O)N(CC)C(=O)[C@@H]23)cc1 (some centres not stated) | / | -3.0 | -0.1 | 3.6 | 0.5 | -3.7 | i | -2.8 | /
Cn1nc(-c2ccc(C(=O)Nc3cccc(Cl)c3)cc2)c2ccccc2c1=O | 0.705 | -7.9 | 1.7 | / | / | / | / | / | -10.0%
COc1ccc(S(=O)(=O)N(C)CC(=O)Nc2ccccc2OC)cc1C | 0.756 | -2.9 | 1.9 | / | / | / | / | / | -0.3%
CC(C)(C)c1ccc(C(=O)NC(=S)Nc2ccc(N3CCOCC3)cc2)cc1 | 0.701 | 17.9 | -0.5 | / | / | / | / | / | /
COc1ccc(N(C)C(=O)c2ccc3c(Cl)c4c(nc3c2)CCCC4)c(OC)c1 | 0.686 | 4.4 | -1.7 | 3.3 | 2.6 | 3.6 | i | -0.1 | /
CCCn1c(C(Cc2ccccc2)NC(=O)COC)nc2ccccc21 (configuration not stated) | 0.786 | / | 2.3 | -0.1 | -16.7 | 14.8 | i | -2.0 | 2.2%
O=C(Nc1ccc(N2CCOCC2)cc1)C1(c2ccc(Cl)cc2)CCC1 | 0.684 | / | 3.2 | -18.5 | -19.9 | -0.7 | i | 8.6 | 5.0%
O=C(NCCCn1ccnc1)/C(=C\c1cccs1)NC(=O)c1ccco1 | 0.723 | -19.1 | -0.5 | / | / | / | i | -2.7 | 3.1%
O=C(NCc1ccc(Cl)cc1Cl)C1CCN(S(=O)(=O)c2ccc3c(c2)OCCCO3)CC1 | 0.706 | -8.2 | -6.2 | -18.8 | -24.2 | -11.6 | i | 1.2 | 21.2%
C[C@@H]1CN([C@@H](C)CO)C(=O)c2cc(NC(=O)Nc3cccc4ccccc34)ccc2O[C@@H]1CN(C)Cc1ccc(-c2ccccc2)cc1 | / | / | / | 0.8 | 3.2 | -0.4 | i | 1.7 | /
O=C(/C=C/c1cccc(F)c1)N1CCN(c2ncccn2)CC1 | 0.657 | 0.0 | -0.5 | -3.4 | 3.5 | -0.5 | i | -1.0 | -9.7%
CC1(C(=O)Nc2ccc(Cl)cc2)Cc2c(-c3ccc(C(N)=O)cc3)ccnc2O1 (configuration not stated) | / | / | -4.0 | -7.2 | -20.6 | -2.3 | i | 0.0 | /
O=C(NCCCN1CCCC1=O)c1ccccc1OCc1ccc(Cl)cc1Cl | 0.641 | -3.0 | 0.2 | -30.6* | -20.0* | -3.2* | i | -4.2 | 1.1%
CCOCCCNCC(=O)N1CCN(S(=O)(=O)c2ccc(C)cc2)CC1 | 0.704 | -8.4 | -6.1 | / | / | / | / | / | -1.1%&-3.7%
Cc1c(Cl)ccc(S(=O)(=O)N2CCN=C2c2ccccc2)c1Cl | 0.644 | -0.4 | -0.6 | / | / | / | / | / | /
O=S(=O)(NCC1CN(S(=O)(=O)c2ccc3c(c2)OCCO3)C1)c1c(F)cccc1F | 0.785 | -2.9 | 0.5 | -3.1 | -4.8 | 2.6 | i | -1.9 | /
CCc1ccc(NC(=O)N(CCCN2CCOCC2)Cc2cccs2)cc1 | 0.718 | -6.4 | -0.6 | 5.3 | 5.5 | -2.9 | i | -7.1 | 3.6%
O=S(=O)(N[C@H]1CC[C@@H](CCn2cc(C3CC3)nn2)O[C@@H]1CO)c1ccc(Cl)cc1 | / | / | / | 5.5 | 14.2 | 1.4 | i | -1.6 | /
NNC(=O)CCN1CCCCC1 | 0.696 | -28.5 | 0.9 | 9.6 | 1.8 | 0.9 | i | -51.1 | /
O=C1c2oc3ccccc3c(=O)c2C(c2cccs2)N1CCCN1CCOCC1 (configuration not stated) | 0.774 | 5.6 | -0.4 | / | / | / | / | / | ?
CCCNC(=O)N1[C@H](CO)[C@@H](c2ccccc2)[C@H]1CNC(C)=O | / | / | / | -4.2 | 4.3 | 4.1 | i | -3.0 | /
COCC(=O)N1CCN(c2ccc([N+](=O)[O-])cc2)CC1 | 0.641 | -2.3 | -0.3 | / | / | / | / | / | -4.9%
CC(=O)NC[C@@H]1[C@@H](c2ccc(-c3ccccc3F)cc2)[C@@H](CO)N1C(=O)C1CC1 | / | / | / | -3.2 | -4.5 | -0.3 | i | 1.0 | /
O=C(Cc1ccccn1)N[C@H]1CC[C@@H](CCNS(=O)(=O)c2cccc(F)c2)O[C@H]1CO | / | / | / | 0.9 | 2.8 | 0.4 | i | -3.3 | /
CC1(C)CC2CC(C)(CN2C(=O)CCCN2C(=O)c3ccccc3C2=O)C1 (configuration not stated) | 0.718 | -2.0 | 1.9 | / | / | / | / | / | -4.0%
COc1cccc(/C=C2/CCC(CN(C)C)C2=O)c1 (configuration not stated) | / | / | -1.0 | / | / | / | i | 1.3 | -4.3%
O=C1CN(C(=O)COC(=O)/C=C/c2ccc(S(=O)(=O)N3CCOCC3)cc2)c2ccccc2N1 | 0.705 | 4.4 | 0.0 | / | / | / | / | -0.8 | ?
Cc1cccc(C)c1NC(=O)CNC(=O)c1ccc2c(c1)OCCO2 | 0.663 | -2.9 | 4.6 | 12.6 | 9.7 | 4.2 | i | -2.5 | -10.2%
CC(=O)N(NC(N)=O)C(C)CC(=O)C1C(C)C=CCC1(C)C (configuration not stated) | 0.648 | -1.7 | 5.0 | 13.3 | 15.0 | 3.2 | i | / | 22.5%
c1csc(-c2nnc(COc3ccc4c(c3)OCO4)o2)c1 | 0.679 | -179.8 | 2.4 | -21.8 | -15.4 | -4.0 | i | -0.9 | 3.8%
CC(=NCc1ccco1)c1c(C)[nH]n(-c2nc3ccccc3s2)c1=O | 0.678 | -17.1 | 3.0 | / | / | / | / | / | 12.8%
CCOc1ccc(NC(=S)N(Cc2ccc(N(C)C)cc2)Cc2ccco2)cc1 | 0.661 | 46.0 | -4.0 | -10.9 | -13.1 | 10.5 | i | 13.1 | 10.1%
Cc1cccc(-c2ccc([C@H]3[C@H](CO)N4CCCCN(S(=O)(=O)c5cn(C)cn5)C[C@@H]34)cc2)c1 | / | / | / | 2.0 | 3.8 | 1.5 | i | 1.5 | /
O=C(Nc1ccccc1)[C@@H]1CCCN1S(=O)(=O)c1ccc(Cl)cc1 | 0.682 | / | 9.1 | -1.2 | -1.4 | 4.5 | i | 7.6 | -1.7%
Cc1c(Cl)c([N+](=O)[O-])nn1CCCC(=O)N1CCN(c2ccccc2)CC1 | 0.717 | ? | 5.5 | -11.0 | 1.6 | 9.9 | i | -1.8 | 0.2%
COCCN1Cc2cccc(C(=O)Nc3ccc(C)cc3)c2C1=O | 0.7 | -7.6 | 1.2 | -7.0 | -3.1 | -2.4 | i | -1.3 | -0.6%
CC(C(=O)NCc1cccnc1)N1C(=O)c2ccccc2C1=O (configuration not stated) | 0.776 | -1.7 | -3.0 | / | / | / | / | / | 18.5%
O=C(CSc1ccccn1)Nc1cccc([N+](=O)[O-])c1 | 0.631 | -13.0 | -1.1 | 9.4 | 3.8 | 0.1 | i | -3.7 | -6.0%
CC(NS(=O)(=O)c1cccc(S(=O)(=O)c2ccccc2)c1)C(=O)O (configuration not stated) | 0.705 | -2.6 | -3.3 | / | / | / | / | / | /
CC1(C(=O)NS(=O)(=O)c2ccc(F)cc2F)CCN1C(=O)Cc1ccc(Cl)cc1Cl (configuration not stated) | / | / | 0.0 | 6.8 | 9.1 | 0.0 | i | -4.1 | /
C[C@@H](NC(=O)C[C@H]1C[C@H]2c3cc(NS(=O)(=O)c4ccc(F)cc4)ccc3O[C@H]2[C@H](CO)O1)c1ccccc1 | / | / | / | -9.5 | -26.4 | -5.3 | i | 1.8 | /
O=C(COC(=O)c1ccccn1)c1cccc(Br)c1 | 0.644 | -42.3 | 3.7 | 19.7 | 12.3 | -0.4 | i | -0.7 | /
COc1cc(C(=O)N2CCCc3ccccc32)cc(OC)c1OC | 0.727 | 1.7 | -1.5 | / | / | / | / | / | -2.5%
Cc1cc(NC(=O)COC(=O)CCS(=O)(=O)c2ccc(Cl)cc2)no1 | 0.694 | -0.1 | 2.3 | 6.6 | 4.6 | 0.1 | i | -6.8 | /
O=C(Nc1cc(-c2ccccc2)[nH]n1)c1ccccc1F | 0.628 | 49.3 | 2.1 | / | / | / | i | 3.5 | -4.3%
CC(Oc1ccc(Cl)cc1Cl)/C(N)=N/O (configuration not stated) | 0.648 | -21.3 | 1.3 | -1.7 | 4.4 | 0.2 | i | -0.9 | 22.9%
Cn1c(SCC(=O)NCC2CCCO2)nc2scc(-c3ccccc3)c2c1=O (configuration not stated) | 0.673 | 1.3 | -2.0 | -1.2 | -18.6 | -2.0 | i | -0.8 | /
COc1cccc(/C=C/C(=O)OCC(=O)Nc2cccc(S(=O)(=O)N3CCOCC3)c2)c1OC | 0.69 | 1.8 | 3.2 | -15.3 | 1.4 | 3.3 | i | 1.9 | 6.9%
COc1ccccc1CN(C(=O)CNC(=O)c1ccco1)C(C(=O)NCC1CCCO1)c1ccc(OC)c(OC)c1 (configuration not stated) | 0.67 | -3.3 | 1.8 | 2.4 | 8.5 | 3.4 | i | -9.7 | 20.2%
CC(C)c1cc2c(c(O)c1O)[C@@]13CCCC(C)(C)C1CC2OC3=O (some centres not stated) | 0.711 | 25.0 | 0.1 | / | / | / | i | 11.7 | /
COc1cccc(S(=O)(=O)N[C@H]2CC[C@H](CCn3cc(-c4ccccc4OC)nn3)O[C@@H]2CO)c1 | / | / | / | -5.3 | -14.9 | 6.5 | i | -0.4 | /
Cc1cc(C)cc(C(=O)NCC(=O)N2CCN(C(c3ccccc3)c3ccccc3)CC2)c1 | 0.707 | 2.0 | -1.8 | -3.1 | -19.8 | 1.1 | i | -1.0 | /
